MgrA-DNA mod: alters Staphylococcus aureus MgrA binding to DNA; inhibition, %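 (about 10 µg/mL by stock and volumes)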; fluorescence polarization; 0.13% of 84,000 active;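 active = above 50% in either of two replicates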;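 also: 0% = protein plus DNA without compound and 100% = DNA alone without protein; higher means less MgrA bound to DNA so lower polarization; one replicate is shown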
Sa helicase inh: blocks Staphylococcus aureus DNA helicase; 0.05% of 120,000 active; inhibition, %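 (tested at about 80 µM)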; purified S. aureus helicase, fluorescence unwinding assay; about half of the hits fall short of the stated cut;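 active = both duplicates at 50% or more, or one of them with a favoured structure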;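 also: 0% = mean of negative control wells and 100% = mean of positive control wells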
* = called active by the depositor; nt = not tested or not shown. Only part of the results is shown, so the mix of outcomes need not match the whole.

The line under a structure holds: Sa helicase inh, MgrA-DNA mod
COc1ccc2c(OC)ccc3c2c1C=CC3=O
→ nt, 36
C=CCN=C1NC(=O)C(CC(=O)Nc2ccccc2)S1 (stereo unspecified)
→ nt, -3.0
c1ccc(-n2cnnc2SCc2nc3ccccc3s2)cc1
→ -6, nt
COC(=O)c1ccc([C@@H]2Nc3c(C)cccc3[C@@H]3C=CC[C@@H]32)cc1
→ -9, 0.4
c1ccc(CCn2c3ccccc3c3nc4ccccc4nc32)cc1
→ 3, 0.2
COC(=O)c1sc(S(=O)(=O)NC(C)C(=O)O)c(C(=O)OC)c1C (stereo unspecified)
→ 3, nt
COC(=O)C(C)Nc1n[nH]c(=O)[nH]c1=O (stereo unspecified)
→ 18, nt
COC(=O)c1sccc1NC(=O)CCCC(=O)O
→ 7, nt
Cc1ccc(SC2=C(N3CCOCC3)C(=O)N(c3cc(C)cc(C)c3)C2=O)cc1
→ -10, 0.2
CCOC(=O)N1c2ccccc2Sc2ccccc21
→ 19, -1.9
Cc1ccnc(NC(=O)Nc2ccccc2)c1
→ -2, 2.8
Cn1nc(C(=O)N2CCC(C(N)=O)CC2)c2ccccc2c1=O
→ -11, nt
CN1CCN(c2ccc3c(ccc4c5ccccc5[nH]c34)n2)CC1
→ 19, nt
CCn1c(CCNC(=O)Cc2c(F)cccc2Cl)nnc1SC
→ 11, -2.5
COC(=O)c1sccc1Oc1ccc(C(F)(F)F)cc1NC(=O)Nc1ccc(Cl)cc1
→ nt, 0.1
CC(C)(C)c1csc(NC(=O)c2ccc3c(c2)OCCO3)n1
→ -4, nt
CCOC(=O)C1CCCN(C(=O)c2ccc(CS(=O)c3ccccc3)o2)C1 (stereo unspecified)
→ -3, 10
COC(=O)c1ccc(C(c2c(N)n(CC(C)C)c(=O)[nH]c2=O)N2CCOCC2)cc1 (stereo unspecified)
→ -6, nt
CC1=NNC(=O)CC1
→ 4, nt
S=c1nc[nH]c2c1cnn2-c1ccc(Cl)cc1
→ 3, nt
COC(=O)c1cccc(N2C(=O)c3ccc(C(=O)OC)cc3C2=O)c1
→ 4, 2.0
COc1ccc(-c2cc(C(=O)N3CCN(c4ccccc4OC)CC3)c3ccccc3n2)cc1
→ nt, 0.5
CN1/C(=C/c2cccc[n+]2C)C=Cc2ccccc21
→ 54*, 6.2
Cc1nn(C)cc1S(=O)(=O)N1CCCc2ccccc21
→ -2, -2.8
CC1CCc2c(sc3ncnc(Oc4ccc(NC(=O)c5ccco5)cc4)c23)C1 (stereo unspecified)
→ -16, nt
CCN(CC)CCOc1ccc(Cl)cc1C
→ 9, 2.5
CCCOc1cccc(CN2CCCCC2c2cccnc2)c1 (stereo unspecified)
→ -1, nt
COC(OC)c1cc(=O)[nH]c(SCc2c(Cl)cccc2Cl)n1
→ nt, -0.8
CC12CCC(C(=O)O)(OC1=O)C2(C)C (stereo unspecified)
→ -42, nt
CCC(=O)Nc1ccc2c(c1)nc1n2CCN(CCOC)C1
→ -22, nt
O=C(CSc1nc2ccccc2c(=O)n1-c1ccc(Cl)c(Cl)c1)N1CCOCC1
→ nt, -1.5
Cc1noc(N)c1-c1nc(-c2cccc(C(F)(F)F)c2)cs1
→ nt, -1.6
CC(C)CN1C(=O)c2ccc(-c3nc4ccccc4c(=O)o3)cc2C1=O
→ -2, 0.7
Cc1cccc(-c2noc(COc3ccccc3)n2)c1
→ 13, -0.6
CC(C)(C)C1CCc2c(sc(NC(=O)CCC(=O)O)c2C(N)=O)C1 (stereo unspecified)
→ -7, nt
CN(C)Cn1c(O)c(N=NC(=O)Sc2nc3ccccc3s2)c2ccccc21
→ -2, nt
O=C(O)/C=C1\SC(=O)N(c2ccccc2)C1=O
→ 1, nt
O=C(NCc1ccco1)C1CCN(c2nc3ccc(Br)cc3s2)CC1
→ -22, nt
O=C(CN1CCN(C(=O)N2CCCCC2)CC1)Nc1ccc(F)cc1
→ 8, -0.8
CCCCNS(=O)(=O)c1ccc2nc(SC(C)C(=O)N3CCCC3)[nH]c2c1 (stereo unspecified)
→ -1, nt
CCOc1cc(C=C2C(=O)N(C)C(=O)N(C)C2=O)ccc1OCc1ccccc1F
→ nt, -3.3
Cc1ccc(Cl)cc1NC(=O)CC(C(=O)O)N(C)C (stereo unspecified)
→ -18, nt
C=CCOc1ccc2c(=O)c(Oc3cccc(C)c3)coc2c1
→ 12, 2.0
COc1ccc(Nc2ncc(C)s2)cc1
→ 2, nt
CC(C)(C)n1ncc(O)c(Cl)c1=O
→ 6, -4.0
COc1ccc(N2CCN(C(=O)CCC(=O)c3ccccc3)CC2)cc1
→ 11, 3.0
CC1CCC(NC(=O)C2CCCN(C(=O)c3cc4sccc4n3C)C2)CC1 (stereo unspecified)
→ 3, nt
O=C1c2ccccc2-c2nn(CC(=O)N3CCOCC3)c3cccc1c23
→ -20, 49
CCCCC(CC)n1[nH]c(=O)cc1N (stereo unspecified)
→ -19, nt
C=CCn1c(=S)sc2c(=O)n(Cc3ccc(C#N)cc3)cnc21
→ -8, nt
CCS(=O)(=O)c1ccc(-c2cccc(NC(=O)c3ccc(Br)o3)c2)nn1
→ 3, nt
O=C(c1cnc2n(c1=O)CCS2)N(c1ccccc1)C1CCCCC1
→ 12, 0.5
CCN(N)C(=S)Nc1ccccc1
→ -15, nt
CC(C(=O)Nc1ccc(S(=O)(=O)N2CCCCC2)cc1)N(C)Cc1nc2ccccc2c(=O)[nH]1 (stereo unspecified)
→ -17, nt
O=C(Nc1cccc(C(F)(F)F)c1)c1ccc(-c2ccccc2F)cc1
→ nt, 0.0
COc1ccc(Nc2nc(Nc3ccc([N+](=O)[O-])cc3)nc(OC)n2)cc1
→ nt, 3.3
CCOC(=O)C1=C(C)N=c2s/c(=C\c3cccc(OC)c3OC)c(=O)n2C1c1ccc2c(c1)OCO2 (stereo unspecified)
→ nt, -1.1
CCC1(CC)C(=O)N=C(SCC(=O)Nc2c(C)n(C)n(-c3ccccc3)c2=O)N(C)C1=O
→ 2, -2.6
COc1ccc(CC(=O)N2CCN(c3ncccn3)CC2)cc1OC
→ nt, 3.1
CC1CC(C)(C)OC(c2ccccc2)O1 (stereo unspecified)
→ -15, nt

The listing continues.
The line under a structure holds: Sa helicase inh, MgrA-DNA mod
CCOc1ccc2nc(NC(=O)c3ccncc3)sc2c1
→ -4, nt
CCOC(=O)c1csc(-c2ccncc2)n1
→ nt, 1.1
COC(=O)c1ccc(C(=O)OC)c(N(C)S(C)(=O)=O)c1
→ 22, nt
CC1(C)CC(=O)c2sc(NS(C)(=O)=O)nc2C1
→ 10, -0.5
CC1(C)CC(=O)C2=C(C1)Nc1[nH]n(-c3ccccc3)c(=O)c1C2c1ccco1 (stereo unspecified)
→ 14, 1.0
CN=C1SC(CC(=O)Nc2ccc(Br)cc2)C(=O)N1/N=C/c1cccs1 (stereo unspecified)
→ 4, nt
Cc1[nH]c2ccccc2c1Sc1ccccc1
→ -16, -0.3
O=c1onc(-c2ccccc2)n1-c1cccc(Cl)c1
→ -19, nt
CCOC(=O)C1CCCN(C(=O)c2sc3nc(-c4ccccc4)cn3c2C)C1 (stereo unspecified)
→ 4, nt
N#C/C(=C\Nc1ccc2c(c1)OCCO2)S(=O)(=O)c1ccc(Cl)cc1
→ nt, -2.4
Cc1ccc(S(=O)(=O)C=C(c2ccccc2)c2ccccc2)cc1
→ 4, -0.5
Cc1cc(C(=O)O)c2cc(O)ccc2n1
→ 1, -5.8
CCCc1ccc(C(=O)Nc2cccnc2Oc2ccc(OC)cc2)cc1
→ nt, -0.7
COC(=O)c1c(C)oc2ccc(NS(=O)(=O)c3ccc(C)cc3)cc12
→ 18, nt
NCCCC(=O)O
→ nt, 4.4
ON=C1C/C=C\CC(=NO)C/C=C\C1
→ nt, 0.1
O=c1[nH]cnc2c1nnn2Cc1ccccc1F
→ 1, 0.1
O=C(Cn1nnc2ccccc21)N1CCN(c2ccccc2)CC1
→ 16, 0.0
N#Cc1c(-c2cccs2)c2c([nH]c1=O)CCCC2
→ nt, -1.0
Cc1cc2cc(CNC(=O)NC3CCCCC3)ccc2[nH]1
→ 8, nt
O=C1CC(c2ccccc2)C(=O)N1Cc1ccc(Cl)cc1 (stereo unspecified)
→ -17, nt
CCCNC(=O)c1sc2nc(C)cc(C)c2c1-n1cccc1
→ 26, nt
CN(C(=O)COc1cc(C(F)(F)F)n(C)n1)c1ccccc1
→ nt, 2.7
CCC(Sc1n[nH]c(=O)[nH]c1=O)C(=O)O (stereo unspecified)
→ 3, -1.2
C=CCn1c(-c2cccs2)nc(-c2ccccc2)c1-c1ccccc1
→ nt, 0.7
CC(C)(C)C(=O)CSc1ncnc2sccc12
→ 8, nt
O=C(Nc1ncc(-c2ccccc2)s1)c1cccc(N2C(=O)CCC2=O)c1
→ 0, nt
COc1ccc(C2=NN(CN3C(=O)C(=O)c4ccccc43)C(c3ccccc3)C2)cc1 (stereo unspecified)
→ nt, -1.7
O=C(O)c1ccc(CNC2CCS(=O)(=O)C2)cc1 (stereo unspecified)
→ -10, nt
Cc1cc(C)cc(OCCn2c(-c3ccc(Cl)cc3)nc3ccccc3c2=O)c1
→ 7, 0.8

Ordered by the number under Sa helicase inh (low to high): some entries from above
Molecule	Sa helicase inh
Cc1[nH]c2ccccc2c1Sc1ccccc1	-16
Cc1cc2cc(CNC(=O)NC3CCCCC3)ccc2[nH]1	8
O=C(Cn1nnc2ccccc21)N1CCN(c2ccccc2)CC1	16

Next section
The line under a structure holds: Sa helicase inh, MgrA-DNA mod
COCC(=O)Nc1nc2ccc(OC)cc2s1
→ 2, nt
CCc1c(O)c2ccccc2[nH]c1=O
→ nt, -4.2
CC(C)=NN/C(N)=N/C(=S)Nc1ccccc1
→ nt, 3.6
CCc1oc2ccccc2c1C(=O)CCN1CCCCC1
→ 15, 1.5
Cc1ccc(-c2nc(C#N)c(NCCCn3ccnc3)o2)cc1
→ 6, 3.1
COC(=O)c1noc(C)c1-c1ccnn1C(=O)c1cc(C(F)(F)F)cc(C(F)(F)F)c1
→ nt, 2.8
COC(=O)c1sccc1N/N=C(/C#N)C(=O)C1CC1
→ 33, nt
O=S(=O)(NCCc1nnc2ccc(SCc3ccccc3)nn12)c1ccccc1
→ -1, 0.2
Cc1cc(=O)nc2c3ccccc3n(C(C)C(=O)Nc3c(F)c(F)cc(F)c3F)n12 (stereo unspecified)
→ 8, 0.9
NC(N)=NCCCCN=C(N)N
→ nt, 2.0
Cc1cc(C(=O)/C(C#N)=C/Nc2cccc(OC(F)(F)F)c2)c(C(F)(F)F)o1
→ -13, nt
COC(=O)c1ccccc1NC(=O)c1ccccc1
→ nt, -0.1
Cc1cc(NC(=O)COC(=O)C2=COCCO2)n(-c2ccccc2)n1
→ 4, nt
CC(C)C(=O)N(c1ccc2oc(=O)sc2c1)S(=O)(=O)c1ccccc1
→ -1, 2.5
O=C(CC12CC3CC(CC(C3)C1)C2)Nc1ccc2oc(-c3ccncc3)nc2c1
→ 16, 5.8
CC12C=CC(O1)C1C(=O)N(c3ccccc3Cl)C(=O)C12 (stereo unspecified)
→ 8, -0.3
CC(=O)Nc1cccc(Oc2c(F)c(F)c(F)c(F)c2F)c1
→ nt, -1.0
Cc1nc(C(F)(F)F)ccc1C(=O)Nc1oc(-c2ccccc2)cc1C#N
→ nt, -0.2
c1csc(-c2csc(N3CCCCC3)n2)c1
→ 2, nt
COC(=O)C1=C(C)NC(=O)NC1/C=C/c1ccccc1 (stereo unspecified)
→ 10, -3.0
Clc1ccc(CN2C3=NCCCN3c3ccccc32)c(Cl)c1
→ 21, nt
COc1ccc(-c2c(C(=O)O)sc(SC)c2C#N)cc1
→ nt, -0.9
Cc1n[nH]c(C)c1S(=O)(=O)N1CCCCC1
→ 18, nt
Cc1ccccc1C(=O)OCCN1CCCCC1
→ 2, nt
CCOC(=O)N1CCN(c2ccc(O)cc2)CC1
→ 0, 0.1
Cc1csc2sc(-c3ccnc(SCC(=O)NC(C)C)n3)c(C)c12
→ nt, 4.5
CC1=CCC(C(=O)O)C(C(=O)Nc2ccc(-c3nc4ccc(C)cc4s3)cc2)C1 (stereo unspecified)
→ 1, -0.7
Cc1ccc(/C=C2/SC(=S)N(CCC(=O)N3CCOCC3)C2=O)cc1
→ -21, nt
CS(=O)(=O)NCCc1nc(-c2ccccc2)cs1
→ 7, nt
Cc1cc2ncn(Cc3ccccc3F)c2cc1C
→ -16, nt
CC(NC(=O)NC1CCN(c2nc3ccccc3s2)CC1)c1cccs1 (stereo unspecified)
→ -1, 4.7
COc1ccc(-c2csc(C3=C(O)CN(CCC(C)C)C3=N)n2)cc1OC
→ 11, nt
COCCn1cnnc1SCC(=O)C12CC3CC(CC(C3)C1)C2
→ 8, nt
O=c1[nH]cccc1C(F)(F)F
→ nt, -1.1
O=C(O)c1ccnc2ccccc12
→ nt, 0.2
CC(=O)Nc1cc(OC(=O)c2ccco2)cc(OC(=O)c2ccco2)c1
→ 6, -4.0
OC(CNCc1ccc(-c2ccccc2Cl)o1)c1ccccc1 (stereo unspecified)
→ 6, -2.6
CCCc1cc(=O)n2[nH]c(-c3ccccc3)cc2n1
→ -1, nt
O=C(OCc1ccc(Br)cc1)c1cccnc1
→ 12, -2.2
C/C(O)=C(/C#N)c1nnc2n1CCCCC2
→ -12, nt
O=C(Nc1ccc(C(=O)NC2CCCCC2)cc1)c1cncc(Br)c1
→ 16, -2.3
CC1CCCC(C)N1C(=O)CN(C)S(=O)(=O)c1ccc2c(c1)OCCO2 (stereo unspecified)
→ 4, nt

Sa helicase inh: hit marks shown above
The line under a structure holds: Sa helicase inh, MgrA-DNA mod
CN1/C(=C/c2cccc[n+]2C)C=Cc2ccccc21
→ 54*, 6.2

Compound activity (PubChem BioAssay)
